CapD inh: CapD enzyme inhibition; purified CapD enzyme, fluorescence intensity read-out; hits give low values; some hits fall short of the stated cut; z-score (no concentration beside the values); 0.23% of 140,000 active;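 active = z-score under -4 in either of two replicates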;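 also: stock transfer was 100 nL into about 40 µL; score is relative to mean and spread of the plate; one replicate is shown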
AID504770: E. coli YBA685 growth inhibition, screen for V. cholerae RctB inhibitors. 0.27% of 130,000 active. E. coli YBA685 rctB-dependent plasmid, OD600 growth, 3 h; hits give low values. z-score (no concentration beside the values). AID 504770;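 active = z-score under -2 on both plates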;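 also: wells of about 30 µL received 100 nL stock; score is relative to mean and SD of the test wells; the first replicate is given; strong numbers were not always called active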
An asterisk follows results filed as active; nt = not tested or not shown.

SMILES,CapD inh,AID504770
COc1cc2c(cc1O)C(C)NCC2 (configuration not stated),0.225,-0.55
Cc1cc(C)nc(SC2=C(Nc3ccc(O)cc3)C(=O)N(Cc3ccccc3)C2=O)n1,nt,0.55
CCOc1ccc(C)cc1S(=O)(=O)n1c(C)nc2ccccc21,-0.405,-0.9
COc1cc(OC)cc(C(=O)OCCN(C2=NS(=O)(=O)c3ccccc32)c2cccc(C)c2)c1,-0.28,nt
O=C(Cc1ccccc1)N=Nc1c(O)[nH]c2ccccc12,nt,0.3
O=C(Nc1ccccc1)c1cnc(-c2ccccc2)nc1-c1ccccc1,-0.365,nt
CCCNc1c(NS(=O)(=O)c2ccc3[nH]c(=O)oc3c2)c(=O)oc2ccccc12,-0.825,-0.7
COC(=O)c1nc(S(C)(=O)=O)ncc1Cl,nt,-2.7*
CCOC(=O)c1sc(SCc2ccc(Cl)cc2)c2c1CC/C(=C\N(C)C)C2=O,0.225,nt
CCN(CC)Cc1ccc(NC(=O)c2cccc(C)c2)cc1,-0.295,1.6
COc1ccc(S(=O)(=O)N2CCCN(Cc3ccccc3)CC2)cc1,0.195,nt
CCOC(=O)C1=C(C)N=c2s/c(=C/c3cc(OC)c(OC)c(OC)c3)c(=O)n2C1c1cc(OC)ccc1OC (configuration not stated),0.625,nt
CCOC(=O)c1sc2ncnc(Nc3ccccc3F)c2c1C,0.01,nt
CCN(Cc1ccncc1)C(=O)CC1(CC(=O)O)CCCC1,-0.265,-0.1
O=C(c1cc(Cl)ccc1[N+](=O)[O-])N1CCN(Cc2ccccc2)CC1,-0.915,nt
N#Cc1c(N)n(CCN)c2nc3ccccc3nc12,-0.695,-0.95
Cc1ccc(OC(=O)c2cc3c(C)nn(-c4ccccc4)c3s2)cc1,0.325,0.45
CC1CN=C(N(C(=O)Nc2ccccc2)c2cccc(C(F)(F)F)c2)S1 (configuration not stated),-0.755,-0.55
COCc1cc(C)nc2sc3c(c12)NCN(c1ccccc1)C3=O,-0.87,0.25
CCCS(=O)(=O)c1c(S(=O)(=O)CCC)c2c3ccccc3ccn2c1C(=O)N/N=C/C=C/c1ccccc1,-0.305,nt
CCC(C)c1ccc(-n2c(=O)c3ccccc3n3c(SCC(=O)NC)nnc23)cc1 (configuration not stated),nt,1
O=C(CN1C(=O)/C(=C2\SC(=S)N(CCS(=O)(=O)O)C2=O)c2ccccc21)Nc1cccc(Br)c1,-0.45,nt
Cc1c2c(n3c(nc4ccccc43)c1C#N)N(Cc1cccnc1)CC2,nt,0.45
COc1ccccc1NC(=O)C(C)Nc1ccccc1SC (configuration not stated),nt,0.3
CC(C)c1ccc(CNC(=O)c2ccc(=O)[nH]c2)cc1,0.345,-0.7
CC(=O)Nc1cccc(-c2csc(Nc3cccc(O)c3)n2)c1,-0.32,0.35
Cc1ccccc1Cn1nc(-c2ccc3c(c2)OCO3)ccc1=O,nt,-0.1
Cc1ccc(S(=O)(=O)N2CC3c4ccccc4CCN3C2c2ccccc2)cc1 (configuration not stated),0.98,nt
Cc1ccc(CNc2ccc3c(c2)ncn3C2CCCCC2)cc1,78,0.1
CCOc1ccc(OCCCCN(C)C)cc1,0.3,0.2
COc1ccc(C2=NN3C(C2)c2ccccc2OC3c2ccc(OCc3ccccc3)cc2)cc1 (configuration not stated),1.42,nt
CC1(C)CNC(=O)c2sc(NC(=O)c3ccccc3Cl)nc2C1,-0.19,0.05
CSc1ncccc1C(=O)OCc1cccc(C(F)(F)F)c1,-0.63,0.25
CC(=O)Oc1ccc(OC(C)=O)c(S(=O)(=O)c2ccc(Cl)c(Cl)c2)c1,-0.67,-0.1
O=C(NC1CCN(Cc2ccccc2)C1)OCCOc1ccc2ccccc2c1 (configuration not stated),-0.11,nt
O=C(CN(Cc1ccco1)C(=O)c1cc(=O)[nH]c2ccccc12)Nc1ccccc1C(F)(F)F,nt,-0.35

Laid out differently: entries from further up
Every second line gives: CapD inh | AID504770
- CCC(C)c1ccc(-n2c(=O)c3ccccc3n3c(SCC(=O)NC)nnc23)cc1 (configuration not stated)
    nt | 1
- CCN(CC)Cc1ccc(NC(=O)c2cccc(C)c2)cc1
    -0.295 | 1.6
- CCN(Cc1ccncc1)C(=O)CC1(CC(=O)O)CCCC1
    -0.265 | -0.1
- CC1(C)CNC(=O)c2sc(NC(=O)c3ccccc3Cl)nc2C1
    -0.19 | 0.05

Remaining list, next part:
SMILES,CapD inh,AID504770
O=C(N/N=C/c1ccc(Sc2nnc(-c3ccccc3)n2-c2ccccc2)o1)c1ccc(Cl)cc1Cl,3.25,nt
Cc1c(OCc2ccc(C(=O)O)o2)ccc2c(-c3ccccc3)cc(=O)oc12,4.13,-1.45
O=C1N=C(N2CCCCC2)S/C1=C\c1cccs1,-1.46,-0.9
CCOc1ccc2cc(C3CC(c4ccc(C)cc4)=NN3C(=O)CCC(=O)O)c(=O)[nH]c2c1 (configuration not stated),0.79,nt
CC(NC(=O)c1ccc(C2SCC(=O)N2Cc2ccccc2)cc1)c1ccccc1 (configuration not stated),-0.06,nt
O=C(NCC1OCCc2ccccc21)C1COc2ccccc2O1 (configuration not stated),-0.365,nt
O=C(NC1CCCC1)c1ccc2c(=O)n(Cc3ccco3)c(=O)n(Cc3cccc(Cl)c3)c2c1,0.78,0.65
COc1ccc(S(=O)(=O)N(Cc2cc3cc4c(cc3[nH]c2=O)OCCO4)C2CCCC2)cc1,nt,0
COc1ccc(-c2nc(-c3ccc4c(c3)C(=O)c3ccccc3-4)c(-c3ccccc3)[nH]2)cc1,36,nt
COc1ccc(-c2cc(C(F)(F)F)n3nc(C(=O)Nc4cccc(C(C)=O)c4)cc3n2)cc1OC,0.31,nt
CCCCn1c(N)c(N(Cc2ccccc2)C(=O)COc2ccccc2F)c(=O)[nH]c1=O,nt,0.35
CCSc1ccc2nnc(-c3ccc(OC)cc3)n2n1,0.515,-0.6
COc1cc(/C=C2\SC(=S)N(CC(=O)Nc3nnc(CC(C)C)s3)C2=O)cc(OC)c1OC,-0.25,nt
O=C(COc1ccc2c(c1)OCO2)Nc1cc(Cl)cc(Cl)c1,nt,-0.15
O=C(Nc1ccc(F)cc1)N1CCN(c2ccc3nnc(-c4ccccc4)n3n2)CC1,-0.49,-0.1
CN(C)C(=O)c1cnc(Cl)c2ccccc12,13.6,-1.05
COC(=O)C1(Nc2c(Cl)cccc2Cl)/C(=C(\O)c2ccc(C)cc2)C(=O)C(=O)N1c1ccccc1 (configuration not stated),-0.355,nt
COC(=O)c1cccc(Nc2ncnc3ccc(Br)cc23)c1,1.96,nt
CC(=O)Nc1nc2ccccc2s1,0.095,-0.9
COc1ccc(-c2nn(CN3CCCC3)c(=S)n2CC(C)C)cc1,nt,-1.05
Cc1cc(NC(=O)Nc2ccccc2)n(C(C)(C)C)n1,0.49,nt
O=S(=O)(c1ccc(Br)cc1)N1CCC(N2CCCCC2)CC1,0.595,0.3
O=C(NC1CCS(=O)(=O)C1)c1ccccc1C(=O)c1ccccc1 (configuration not stated),nt,-0.55
O=C(COC(=O)Cc1ccc(-c2ccccc2)cc1)NCc1ccco1,0.585,1.05
O=C(c1ccc(=O)[nH]n1)N1CCN(c2ccccc2)CC1,nt,0.1
CC(=O)C1=NN(c2ccccc2C)C2(S1)SC(c1ccc(Br)cc1)(c1ccc(Br)cc1)c1ccccc12 (configuration not stated),-0.39,nt
O=C(O)c1cc(Nc2ccccc2C(=O)O)nc(Nc2ccccc2C(=O)O)n1,-5.1*,-0.45
O=C1CCC(=O)N1CCc1c[nH]c2ccc(OCc3ccccc3)cc12,-0.42,0.35
CCCS(=O)(=O)c1c(S(=O)(=O)CCC)c2cc(-c3ccncc3)ccn2c1C(=O)N/N=C/c1c[nH]c2ccccc12,0.02,nt
O=C(c1cc2cccc3c2n(c1=O)CCC3)N1CCN(Cc2ccccc2)CC1,7.51,nt
Cc1cccc(NC(=O)CS(=O)(=O)c2cn(C)c3ccccc23)c1C,-0.735,-0.4
Cn1c(C(O)C(O)c2ccccc2)nc2ccccc21 (configuration not stated),nt,-0.2
Cn1c(=N)n(CC(=O)c2ccco2)c2ccccc21,0.245,-0.55
CCCCN1C(=O)C(O)(CC(=O)c2ccccc2)c2ccccc21 (configuration not stated),-0.12,-1.25
CNC(=S)NNC(=O)c1ccc(=O)n(Cc2cccc(C(F)(F)F)c2)c1,-0.64,nt
O=C(c1cccc(C(F)(F)F)c1)N1CCC(c2nnc(-c3ccc(F)cc3)o2)CC1,0.01,nt
COc1cc2c(cc1OC)CN(CC#N)CC2,-0.125,-0.4
CC(O)CNc1nc2ccccc2n1CC(=O)NC(C)C(C)C (configuration not stated),nt,-0.9
Clc1ccc(-c2ccn[nH]2)cc1,0.84,-0.85
Cc1c(OCC(=O)Nc2ccc(Cl)cc2C(=O)c2ccccc2Cl)ccc2c1OC(C)(C)CC2=O,-0.3,nt
CC(NC(=O)c1ccccc1-c1ccccc1C(=O)O)c1ccccc1 (configuration not stated),0.02,-0.35
CCOC(=O)C(C(=O)O)c1ccccc1 (configuration not stated),-0.655,-0.4
Nc1c(C(=O)O)cnn1-c1ccccc1,nt,0.65
CCOC(=O)/C=C1\CCC(/C=N/Nc2ccccc2)=C1N1CCOCC1,nt,2.55
CN(C)C(=O)CSc1nc(C(C)(C)C)cs1,nt,1.7
CCN1CCCC1CNC(=O)c1sc2ncnc(N3CCN(c4ccccc4OC)CC3)c2c1C (configuration not stated),-0.205,nt
Cc1cc(C)c(C2=NON3N(C(=O)c4ccc(S(=O)(=O)N5CCOCC5)cc4)c4ccccc4N23)c(C)c1,0.005,-0.3
O=C(c1cnn(-c2nc3ccccc3s2)c1)c1ccccc1O,nt,-1.1

Reprinted at random: 4 compounds from above
SMILES,CapD inh,AID504770
Nc1c(C(=O)O)cnn1-c1ccccc1,nt,0.65
Cc1cc(C)c(C2=NON3N(C(=O)c4ccc(S(=O)(=O)N5CCOCC5)cc4)c4ccccc4N23)c(C)c1,0.005,-0.3
CCN1CCCC1CNC(=O)c1sc2ncnc(N3CCN(c4ccccc4OC)CC3)c2c1C (configuration not stated),-0.205,nt
CCOC(=O)/C=C1\CCC(/C=N/Nc2ccccc2)=C1N1CCOCC1,nt,2.55

The list goes on.
SMILES,CapD inh,AID504770
COc1ccc(-c2nn(-c3ccc(C)c(Cl)c3)c3c2cnc2ccc(F)cc23)cc1OC,-1.66,0.15
COc1ccccc1CNn1c(C)nnc1SCc1ccccc1F,-0.245,-1.1
CC(=O)C1=NN(c2ccc(Cl)cc2)C2(S1)c1ccccc1C(c1ccc(C(C)(C)C)cc1)=NN2c1ccccc1 (configuration not stated),-0.81,nt
CCCCOC(=O)COc1ccc2c(=O)c(Oc3ccc(OC)cc3)c(C(F)(F)F)oc2c1,-0.475,nt
C=CCN1C(=O)/C(=C2\SC(C)=C(C)N2c2nccs2)S/C1=N\S(=O)(=O)c1ccccc1,nt,1.2
O=C(C1CCC(Cn2c(=S)[nH]c3ccccc3c2=O)CC1)N1CCN(c2ccc(Cl)cc2)CC1 (configuration not stated),-0.945,1.35
O=C1c2ccccc2C(=O)N1CCN1C(=O)c2ccccc2C1=O,nt,-0.2
Cc1ccc(C(=O)Nc2ccc(N3CCN(S(C)(=O)=O)CC3)c(F)c2)cc1,0.09,nt
CC(Oc1ccccc1F)C(=O)NC1CCS(=O)(=O)C1 (configuration not stated),0.51,0.25
COc1ccc(S(=O)(=O)N(CC(=O)NC2CC2)Cc2ccccc2)cc1,1.52,0
CCc1nonc1NC(=O)c1ccccc1,0.06,-0.3
O=C(NC1CCCCCC1)c1csc2c1CCCC2,-0.315,-0.85
O=S(=O)(c1ccc2c(c1)OCCCO2)N1CC=C(c2ccccc2)CC1,-0.045,-0.4
Cc1n[nH]c(C)c1CC(=O)NCCc1ccccc1,-0.4,-0.05
N#CC1=C(NC(=O)c2ccc(Cl)c(Cl)c2)CCC1,0.825,-0.45
CC(C)NC(=O)COc1ccc(Cl)cc1Cl,0.145,-0.7
N#Cc1ccc(C(=O)CSc2n[nH]c(=O)n2Cc2ccco2)cc1,-1.27,-0.55
O=C(NCc1ccccc1)C(c1ccc(F)cc1)N(Cc1ccco1)C(=O)c1ccccn1 (configuration not stated),nt,0.15
CCCCNC(=O)N1CCN(c2ccnc3cc(Cl)ccc23)CC1,-0.775,1.4
Clc1ccccc1Nc1nc2nonc2n2cnnc12,5,nt
Clc1ccc(Sc2ccc3nnc(-c4ccccc4)n3n2)cc1,-0.145,1.85
CCCn1c(=S)[nH]c2sc(CC)cc2c1=O,nt,-0.1
Cc1ccc(-c2nsc(SCC(=O)c3ccc(Cl)cc3)n2)cc1,0.04,0.1
COc1cc(CN2CC=C(c3ccc(F)cc3)CC2)cc2c1OCO2,0.035,-0.2
COc1ccc(/C=C2\SC(=S)N(Cc3ccccc3)C2=O)cc1Oc1ccc([N+](=O)[O-])cc1[N+](=O)[O-],-0.19,nt
COc1ccccc1OC/C(O)=C(\C#N)c1nc2ccccc2[nH]1,nt,1
CC(C)(C)OC(=O)Oc1ccc(/C=N/NC(=O)CC2Sc3ccccc3NC2=O)cc1 (configuration not stated),0.115,nt

Assay outcomes from PubChem.

A portion of the library. The share of hits here may be higher or lower than overall.
